Source: PubChem BioAssay (several laboratories)
GALR2 agonist: agonists of human galanin receptor 2 (GALR2) | GALR2-expressing cells, agonist activation read-out | AID 803 | activation, %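 (tested at 5 µM)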 | actives 0.48% (n = 140,000);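 active = above mean plus 3 SD of all compounds, about 5% in these data, not always enough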;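 note: 0% = vehicle buffer wells and 100% = reference agonist at full effect; tested in CHO reporter cells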
Target sequence (O43603 whole entry, looked up): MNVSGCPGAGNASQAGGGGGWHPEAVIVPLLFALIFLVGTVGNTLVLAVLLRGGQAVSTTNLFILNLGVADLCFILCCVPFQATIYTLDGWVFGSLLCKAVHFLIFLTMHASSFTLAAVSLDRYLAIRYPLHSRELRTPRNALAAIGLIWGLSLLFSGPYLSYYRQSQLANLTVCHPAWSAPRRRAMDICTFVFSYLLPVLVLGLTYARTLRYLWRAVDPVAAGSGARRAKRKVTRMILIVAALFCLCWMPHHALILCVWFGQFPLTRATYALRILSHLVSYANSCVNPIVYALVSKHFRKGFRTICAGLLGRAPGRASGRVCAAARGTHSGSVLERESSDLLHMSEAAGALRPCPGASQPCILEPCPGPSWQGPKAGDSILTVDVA
INS promoter inh: TRM-6 insulin promoter activity inhibition | inhibition, % at 2 µM | TRM-6 cells (human fetal islet line), insulin promoter-eGFP reporter, imaging; reporter expression induced with tamoxifen | AID 1273 | actives 0.9% (n = 130,000);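 active = inhibition above the mean plus 3 SD, with well images judged a real hit on visual review, cut at about 60% in these data, passing the limit was not always enough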
HSV replic up: HSV replication enhancement. HSV replication augmentation in cells, fold increase. maximum fold increase. actives 0.005% (n = 220,000);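 active = peak rise of 1.5-fold or more in the series; tested in PC3 cells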;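 note: first round at 10 µM; read as green reporter fluorescence; hits show the peak of a series up to 25 µM; 1 = signal of infected wells without compound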
RGS16-Gao: modulates binding between human RGS16 and Galphao. binding response (% of control), % at 10 µM. bead-based flow cytometry RGS16-Galphao binding, fluorescence; actives lie on both sides. actives 0.38% (n = 220,000);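 active = below 25% or above 175%, edge rows of some plates excepted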;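 note: Galphao activated by GDP with aluminum fluoride before binding; 100% = wells without compound and 0% = beads without RGS; some results beyond the cut were filed as inactive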
Target sequence (O15492 whole entry, looked up): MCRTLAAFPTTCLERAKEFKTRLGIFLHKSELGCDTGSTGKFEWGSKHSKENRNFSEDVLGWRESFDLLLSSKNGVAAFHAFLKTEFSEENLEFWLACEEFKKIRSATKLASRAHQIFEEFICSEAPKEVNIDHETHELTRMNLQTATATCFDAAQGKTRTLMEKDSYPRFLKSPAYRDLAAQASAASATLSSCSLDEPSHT
Target sequence (P09471 whole entry, looked up): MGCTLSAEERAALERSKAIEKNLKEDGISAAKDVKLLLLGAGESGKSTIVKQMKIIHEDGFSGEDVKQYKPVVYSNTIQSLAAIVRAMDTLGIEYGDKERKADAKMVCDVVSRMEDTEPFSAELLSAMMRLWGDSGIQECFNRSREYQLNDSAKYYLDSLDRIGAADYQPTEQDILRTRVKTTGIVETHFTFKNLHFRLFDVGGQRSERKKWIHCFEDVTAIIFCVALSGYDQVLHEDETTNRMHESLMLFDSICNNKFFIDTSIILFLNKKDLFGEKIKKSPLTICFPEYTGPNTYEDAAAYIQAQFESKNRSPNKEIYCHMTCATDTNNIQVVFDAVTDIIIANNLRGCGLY
PKD1 inh: PKD1 (human) kinase inhibition. PKD1 kinase fluorescence polarization assay. inhibition, %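 (about 10 µM by stock and volumes)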. actives 0.056% (n = 200,000). Q15139;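 active = inhibition of 50% or more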;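 note: controls were vehicle for no effect and a reference inhibitor for full effect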
INS promoter inh cell count: further read-out of INS promoter inh, marked with its call; normalized cell count, %; measured here: cell count, toxicity; reference of the scale not given here;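 cells exposed to compound for 48 h; stained nuclei by imaging scaled within each plate; lower means fewer cells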
HSV replic up primary fold: also measured in HSV replic up; calls as there; fold increase; compound at 10 µM; measured here: primary screen fold increase 10 uM; tested in PC3 cells;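 GFP signal in the first replicate; 1 = infected wells without compound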
* marks the source's active call; other numbers are inactive results; i = inactive; . = no result given; [ ] = another dose, or the depositor's remark.

SMILES	GALR2 agonist	INS promoter inh	INS promoter inh cell count	HSV replic up	HSV replic up primary fold	RGS16-Gao	PKD1 inh
CC(C)COC(=O)NCCOC(=O)Nc1cccc(Cl)c1	-1.6	.	.	i	0.89	103	-12
Cc1cc(C)n(CCNCc2c(C(=O)N3C[C@@H](C)O[C@@H](C)C3)nc3ccc(Cl)cn23)n1	.	.	.	i	0.94	98	5
Cc1cc(O)c(C(C)C)cc1NC(=O)Cn1nc(C)c2ccccc2c1=O	-1.4	.	.	i	0.75	98	2
CN(C)c1ccc(C(=S)N2CCCCCC2)cc1	-0.8	48	141	i	0.99	86	-1
CC(C)=C1SC(N2CCN(c3ccc(Cl)cc3)CC2)=NC1=O	.	71*	108*	i	0.92	101	-4
N#Cc1cccc(S(=O)(=O)NCC(=O)OCC(=O)c2ccc[nH]2)c1	.	.	.	i	1	102	-3
CCOC(=O)N1CCN(CC(O)COCc2ccc(Cl)cc2)CC1 (centres undefined)	-3.0	i	28	i	0.92	102	-11
CCc1cccc(NC(=O)Cn2c3[n+](c4ccc(C(F)(F)F)cc42)CCCCC3)c1	-2.2	-100	68	i	0.92	238*[activator]	2
S=C(Nc1ccc2nccnc2c1)N1CCCC1	.	.	.	i	1	117	4
S=C(NCCN1CCCCC1)Nc1ccccc1	.	.	.	i	0.86	101	-8
Cc1occc1-c1nnc(SCC(=O)NC(C)(C)C)n1C(C)c1ccccc1 (centres undefined)	-1.7	29	90	i	1.1	101	5
COc1ccc(S(=O)(=O)CCC(=O)NCCc2ccc(S(N)(=O)=O)cc2)cc1	-1.1	.	.	i	1.1	100	2
CCN(CC)CCNC(=O)c1ccc(N)cc1	-2.3	22	74	i	0.72	.	-9
COc1ccc(NC(=O)c2ccccc2F)cc1Cl	15*	-43	95	i	0.98	108	-2
O=C(COc1ccc(Cl)cc1)NCc1nnc(SCC(=O)Nc2ccc3c(c2)OCCO3)o1	-2.7	32	117	i	1	99	-4

RGS16-Gao: what is marked active above.
smiles	GALR2 agonist	HSV replic up	HSV replic up primary fold	RGS16-Gao	PKD1 inh
CCc1cccc(NC(=O)Cn2c3[n+](c4ccc(C(F)(F)F)cc42)CCCCC3)c1	-2.2	i	0.92	238*[activator]	2

Other records follow:
SMILES	GALR2 agonist	INS promoter inh	INS promoter inh cell count	HSV replic up	HSV replic up primary fold	RGS16-Gao	PKD1 inh
Cc1ccc(-n2c(CNc3ccc(F)cc3)nnc2SCC(=O)O)cc1	.	29	112	i	0.9	108	1
Cc1cccc(C)c1Nc1nnc(SCC(=O)NCc2ccco2)s1	-2.9	-7	114	i	1.1	101	8
CCCNC(=O)c1[nH]c(C)c(C(=O)OCC)c1C	0.4	27	93	i	0.93	108	-5
CC(C)=C(NC(=O)c1ccccc1)C(=O)Nc1cccc(C(=O)O)c1	.	.	.	i	0.97	106	7
Cc1cccc2cc(CN(CCN3CCOCC3)C(=O)NCc3ccccc3)c(=O)[nH]c12	-0.4	14	106	i	0.94	103	-4
O=C(O)c1ccc2c(c1)C(=O)N(CCC1=CCCCC1)C2=O	-1.0	12	138	i	0.92	104	-2
Cc1ccccc1NC(=O)Nc1cc(-c2ccccc2)nn1C	.	.	.	i	0.91	86	.
COc1ccc(C(c2c(O)nc[nH]c2=O)c2c(O)nc[nH]c2=O)cc1	.	.	.	i	0.97	101	.
CNC(=S)N/N=C/c1c(C)nn(-c2cccc(Cl)c2)c1Cl	0.6	.	.	i	1.1	98	5
CSc1ncccc1C(=O)OCC(=O)c1cc(C)n(CC2CCCO2)c1C (centres undefined)	.	.	.	i	1.2	101	.
Cn1c2c(c(=O)n(C)c1=O)C(c1cc3c(cc1Br)OCO3)CC(=O)N2 (centres undefined)	-0.1	.	.	.	.	108	3
N#Cc1nc(/C=C/c2ccccc2)oc1NCCCN1CCOCC1	.	.	.	i	0.93	107	.
CC(C)CC(=O)Nc1nc(=S)ss1	0.1	.	.	i	0.99	82	4
CCN(CCO)c1ccc(N=Nc2cc(C)[nH]n2)cc1	.	.	.	i	0.79	99	.
Cc1ccc(SCC(=O)Nc2ccc(N3CCN(c4ccccc4)CC3)c(F)c2)cc1	-1.3	.	.	i	0.99	101	-1
O=C(O)/C=C/C(=O)Nc1ccc(OCc2ccccc2)cc1	.	.	.	i	1.1	104	.
Cc1ccc(NS(=O)(=O)c2cc(C(=O)NCCSc3ccc(C)cc3)ccc2C)cc1	-2.0	.	.	i	0.81	132	-11
O=C(Nc1nc(=O)c2ccccc2s1)c1ccccc1	-1.4	-188	47	i	0.91	95	7
CC(=O)N1CN(C2CCS(=O)(=O)C2)Cc2c1sc1c2CCCC1 (centres undefined)	-3.1	.	.	i	0.95	59	0
O=C(/C=C/c1ccc2c(c1)OCO2)N1CCOCC1	-2.7	.	.	i	0.71	99	1
c1csc(CNc2ncnc3nc[nH]c23)c1	-1.1	.	.	i	0.85	104	0
O=[N+]([O-])c1nn(-c2ccccc2)n(O)c1=NCc1ccc2c(c1)OCO2	-2.1	.	.	i	0.85	99	-6
O=C(c1ccc2nccnc2c1)N1CCN(Cc2ccc3c(c2)OCO3)CC1	-4.0	31	82	i	1	99	8
COc1cccc(NC(=O)COc2ccc3c(c2)CCC3)c1	.	-9	124	i	0.96	96	-8
CCOC(=O)C1=NN(C(C)=O)C2(CC(=O)N(c3cc(C)cc(C)c3)C2=O)C1 (centres undefined)	0.8	3	124	i	0.91	107	-5
CC(C)COP(=O)(OCC(C)C)C(O)c1ccccc1F (centres undefined)	-1.2	.	.	i	0.86	132	14
C=CCn1cc(/C=C2/NC(=O)NC2=O)c2ccccc21	.	.	.	i	1	106	.
COC(=O)c1cc2oc3ccccc3c2n1CC(=O)Nc1ccccc1OC	-1.1	.	.	i	0.99	104	-5
O=S1(=O)C[C@@H](O)[C@@H](Nc2ccccc2)C1	.	.	.	i	1	100	.
Cc1oc(C(C)(C)C)cc1C(=O)N1CCCC1C(=O)O (centres undefined)	1.0	-12	73	i	0.78	86	11

Single records, as listed above. Screens in order: GALR2 agonist	INS promoter inh	INS promoter inh cell count	HSV replic up	HSV replic up primary fold	RGS16-Gao	PKD1 inh
Cc1ccc(NS(=O)(=O)c2cc(C(=O)NCCSc3ccc(C)cc3)ccc2C)cc1 is listed with -2.0	.	.	i	0.81	132	-11
O=C(O)/C=C/C(=O)Nc1ccc(OCc2ccccc2)cc1 is listed with .	.	.	i	1.1	104	.
O=[N+]([O-])c1nn(-c2ccccc2)n(O)c1=NCc1ccc2c(c1)OCO2 is listed with -2.1	.	.	i	0.85	99	-6
CC(=O)N1CN(C2CCS(=O)(=O)C2)Cc2c1sc1c2CCCC1 (centres undefined) is listed with -3.1	.	.	i	0.95	59	0
c1csc(CNc2ncnc3nc[nH]c23)c1 is listed with -1.1	.	.	i	0.85	104	0

Remaining list, next part:
SMILES	GALR2 agonist	INS promoter inh	INS promoter inh cell count	HSV replic up	HSV replic up primary fold	RGS16-Gao	PKD1 inh
CC(OC(=O)c1ccccc1NS(=O)(=O)c1cccc(N)c1)C(=O)N(C)Cc1ccccc1 (centres undefined)	-0.6	-53	53	i	0.98	12*	-7
CC(C)N(C(=O)Cn1cc(SCC(=O)NCc2ccco2)c2ccccc21)C(C)C	.	.	.	i	0.9	109	-5
COc1ccccc1N(CC(=O)NC(C)(C)C)C(=O)c1ccc(Cl)nc1	.	7	105	i	0.76	3	-5
Cc1cc(NC(=O)c2cnn3c(C(F)(F)F)cc(-c4ccccc4)nc23)no1	1.7	-429	46	i	0.98	105	1
O=C(O)C1CCCCC1C(=O)NCCc1ccc(F)cc1 (centres undefined)	.	.	.	i	0.82	132	1
CNC(=O)CSc1nnc(-c2cccc(S(=O)(=O)N3CCOCC3)c2)n1-c1ccc(F)cc1	-1.9	41	90	i	0.94	105	-4
CC1CCN(Cc2nnnn2-c2ccc(Cl)cc2)CC1	-1.2	-16	111	i	0.93	95	-3
COc1ccc(NC(=O)Nc2ccccc2F)c([N+](=O)[O-])c1	.	.	.	i	1.1	104	6
O=C(c1ccc(Br)o1)N1CCN(c2ccc(F)cc2)CC1	-2.2	0	46	i	0.84	106	3
O=C(Nc1ccc(N2CCN(C(=O)c3ccco3)CC2)cc1)c1ccccc1	.	52	58	i	0.93	105	-6
O=C(N/N=C1\CCCCc2ccccc21)c1ccccn1	.	.	.	i	0.92	97	-8
Cc1ccc(-n2c(C)cc(C=C3C(=O)CC(C)(C)CC3=O)c2C)cc1	-1.4	-6	63	i	1.2	101	-5
COc1ccc(N=CC2=C(O)CC(c3ccccc3)CC2=O)c(OC)c1 (centres undefined)	0.4	-49	119	i	0.71	105	-16
CCOC(=O)N/N=C(\C)c1ccc(OC(F)F)cc1OC(F)F	-1.1	.	.	i	1.2	100	5
CC(=O)Nc1ccc(S(=O)(=O)c2ccc(N)cc2)cc1	-1.8	.	.	i	0.72	101	-6
Cc1ccc(OC(=O)COc2ccccc2)c(-n2nc3ccccc3n2)c1	-2.4	57	60	i	0.94	94	-5
COc1ccc(/C=N/NC(=S)NCC2CCCO2)cc1 (centres undefined)	.	.	.	i	0.82	101	.
Cc1ccc(SCc2ccc(C(=O)NCc3cccnc3)cc2)cc1	-1.1	37	118	i	0.9	70	-6
CCC(C(=O)OC)n1cnc2c(cnn2-c2ccc(Cl)cc2)c1=O (centres undefined)	-1.4	.	.	i	0.85	106	-2
O=C(COC(=O)/C=C/c1cccc([N+](=O)[O-])c1)NCc1ccco1	.	50	126	i	1	95	2
O=C(O)CC/C(=N/NC(=O)CNC(=O)Cc1ccccc1)c1ccccc1	.	.	.	i	1.3	83	.
COc1ccc(-c2csc3ncn(CC(=O)N4CCOCC4)c(=O)c23)cc1	.	15	119	i	0.94	105	-6
COc1cccc(-c2cc3nc4c(c(N5CCC6(CC5)OCCO6)n3n2)CCCC4)c1	0.3	14	107	i	0.97	97	-6
CN1CCN(c2ccc([N+](=O)[O-])cc2/C=N/NC(=O)c2ccc(F)cc2)CC1	-0.6	27	141	.	.	102	1
CCN1C(=O)C(CC(=O)Nc2ccc(F)cc2)N(Cc2ccco2)C1=S (centres undefined)	.	.	.	i	0.94	101	-7
Cc1noc(C)c1COC(=O)CN(C)S(=O)(=O)c1ccc(Cl)cc1	-1.1	-65	131	i	0.97	131	-1
CC1S/C(=N/N=C/c2ccco2)N(Cc2ccc(F)cc2)C1=O (centres undefined)	.	.	.	i	1	100	.
CC(C)(C)c1ccc(-c2noc(-c3ccno3)n2)cc1	.	.	.	i	0.96	98	.
CNC(=S)NNC(=O)c1ccc(C(C)(C)C)cc1	.	.	.	i	0.95	102	.
COc1cccc(C(=O)COC(=O)C(C)N2C(=O)c3ccccc3C2=O)c1 (centres undefined)	-0.3	14	81	i	0.7	100	-4
O=C(Nc1ccccc1)C1=C[C@@H](c2coc3ccccc3c2=O)C[C@@H](OCc2ccc(CO)cc2)O1	.	.	.	.	.	102	10
COc1ccccc1C1C(C#N)=C(N)Oc2c1c(-c1ccccc1)nn2-c1ccccc1 (centres undefined)	-1.6	.	.	.	.	110	1
O=c1c2ccccc2nc2n1C(CSCc1ccccc1)CS2 (centres undefined)	-0.8	14	70	i	0.96	108	1
COc1cc(OC)c(OC)cc1CN(C)CCc1ccccn1	-2.6	-12	87	i	0.96	93	-20
CC(=O)c1ccc(Sc2ccccc2)cc1	-3.3	-22	113	i	0.75	103	-8
O=C(NCc1ccccc1F)c1ccc2c(c1)OCO2	-2.5	-23	123	i	0.9	101	0
O=C(CSc1nnnn1C1CCCCC1)Nc1cccc(NC(=O)c2ccco2)c1	-1.6	-12	110	i	0.87	101	-12
CC(C)Nc1nnc(SCC(=O)c2c[nH]c3ccccc23)s1	-1.1	20	129	i	0.97	106	-2
COc1ccc(/C=N/NC(=O)c2cc(=O)[nH]c3ccccc23)cc1OC	.	0	70	i	0.69	98	-1

Four of the compounds above, as labelled records.
O=C(CSc1nnnn1C1CCCCC1)Nc1cccc(NC(=O)c2ccco2)c1
  GALR2 agonist: -1.6	INS promoter inh: -12	INS promoter inh cell count: 110	HSV replic up: i	HSV replic up primary fold: 0.87	RGS16-Gao: 101	PKD1 inh: -12

O=C(Nc1ccccc1)C1=C[C@@H](c2coc3ccccc3c2=O)C[C@@H](OCc2ccc(CO)cc2)O1
  GALR2 agonist: .	INS promoter inh: .	INS promoter inh cell count: .	HSV replic up: .	HSV replic up primary fold: .	RGS16-Gao: 102	PKD1 inh: 10

O=c1c2ccccc2nc2n1C(CSCc1ccccc1)CS2 (centres undefined)
  GALR2 agonist: -0.8	INS promoter inh: 14	INS promoter inh cell count: 70	HSV replic up: i	HSV replic up primary fold: 0.96	RGS16-Gao: 108	PKD1 inh: 1

COc1ccccc1C1C(C#N)=C(N)Oc2c1c(-c1ccccc1)nn2-c1ccccc1 (centres undefined)
  GALR2 agonist: -1.6	INS promoter inh: .	INS promoter inh cell count: .	HSV replic up: .	HSV replic up primary fold: .	RGS16-Gao: 110	PKD1 inh: 1
